Lassa entry inh – blocks Lassa virus binding to or entry into cells; Lassa virus pseudotype entry inhibition, cell reporter; control for the full effect not named in the record; Potency, µM (series often up to 37.9 µM), without a hit: at the highest dose activity change, negative = inhibition, actives largely listed as inhibitors; 300,000 tested, 1.2% active; AID 540256; active means well fitted inhibition curve with a large enough effect; inconclusive means small, poorly fitted or top-dose-only effect, or effect the other way; inactive means flat fitted curve, though single readings scatter; tested in HEK293 cells; note: % is set by controls: 0 for no effect and ±100 for the full control effect; nearly all actives have a fitted effect of over 50% in size; luciferase read-out
SARS PLpro yeast – blocks SARS-CoV papain-like protease in a yeast assay; S. cerevisiae expressing SARS-CoV PLpro, growth rescue; control for the full effect not named in the record; Potency, µM (doses to about 32.9 µM), without a hit: at the top dose activity, positive = growth rescue; 330,000 tested, 0.19% active; note: 0% is about no effect; nearly all actives have a fitted effect of over 55% in size; growth read by luminescence after 48 h
Cruzain noTriton – blocks cruzain activity in detergent-free assay; purified cruzain, Z-FR-AMC fluorescence, no detergent; Potency, µM, for the others: max response, negative = inhibition, hits mostly inhibitors; P25779; 200,000 tested, 2.3% active; active = well fitted curve in the direction sought with a large enough effect; inconclusive = small, poorly fitted or top-dose-only effect, or another doubt; inactive = no such curve, though single readings can be large; an effect the other way counts as inactive or inconclusive;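 note: plate controls were enzyme without inhibitor for no effect and buffer without enzyme for full effect; nearly all actives have a fitted effect of over 40% in size; top concentration of the series not given in the record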
Target sequence (P25779 123-467 limits assumed): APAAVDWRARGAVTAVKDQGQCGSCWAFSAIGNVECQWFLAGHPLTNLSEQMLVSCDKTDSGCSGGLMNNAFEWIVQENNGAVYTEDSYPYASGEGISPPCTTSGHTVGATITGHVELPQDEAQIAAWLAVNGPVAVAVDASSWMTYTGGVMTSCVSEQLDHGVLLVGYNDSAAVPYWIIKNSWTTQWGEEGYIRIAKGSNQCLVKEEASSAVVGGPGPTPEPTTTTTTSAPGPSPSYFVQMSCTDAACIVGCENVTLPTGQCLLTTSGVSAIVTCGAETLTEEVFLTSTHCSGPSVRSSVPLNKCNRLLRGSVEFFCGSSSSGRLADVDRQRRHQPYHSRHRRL
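Purified cruzain at 1.5 nM, pre-incubated 15 min with compound at room temperature in 100 mM sodium acetate pH 5.5, 5 mM DTT, 0.00005% Triton X-100. Reaction started with 2 uM Z-FR-AMC; AMC fluorescence increase over 60 s gives rate.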
RE007 growth inh – less growth of the S. pombe RE007 Vpr strain; Potency, µM (highest dose often 92.2 µM), without a hit: at the top dose activity change, negative = less growth; 360,000 tested, 0.21% active; S. pombe RE007 Vpr strain, BacTiter-Glo ATP luminescence, 24 h; control for the full effect not named in the record; active = well fitted falling curve with a large enough effect; inconclusive = small, poorly fitted or top-dose-only effect; inactive = no such curve, though single readings can be large or run the other way;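 note: % is set by controls: 0 for no effect and ±100 for the full control effect; nearly all actives have a fitted effect of over 50% in size; the assay follows cell death caused by Vpr and the record does not say whether a fall means rescue or toxicity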
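Fission yeast RE007 carrying one integrated HIV-1 vpr copy, seeded at OD 0.01 in PMG+AL medium with 23 nL pinned compound. Grown 24 h at 30 degrees; viability read by BacTiter-Glo luminescence after 5 min.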
NS1 inh – influenza NS1 inhibition; 270,000 tested, 0.4% active; Potency, µM (top dose mostly 46.1 µM), without a hit: at the highest dose activity, positive = more growth; AID 2326; S. cerevisiae slowed by influenza A NS1, growth recovery by OD600; note: actives are rising curves; nearly all actives have a fitted effect of over 50% in size
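Compounds were scored for reversing the slow growth caused by influenza A NS1 in S. cerevisiae, measured by optical density at 600 nm. Assay medium contained 2% galactose at pH 6.0; NS1-free yeast of the same strain were the positive control.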
Marburg entry inh – blocks Marburg virus binding to or entry into cells | Marburg virus pseudotyped entry inhibition, cell reporter; control for the full effect not named in the record; about a third of the inactives were read at about 46 µM | Potency, µM (highest dose often 37.8 µM), for inactives: top-dose activity change, negative = inhibition, usual class: inhibitors | 300,000 tested, 1.8% active | AID 540276; active = well fitted inhibition curve with a large enough effect; inconclusive = small, poorly fitted or top-dose-only effect, or effect the other way; inactive = flat fitted curve, though single readings scatter; tested in HEK293 cells; about a fifth of its hits are not listed in these tables; note: % is set by controls: 0 for no effect and ±100 for the full control effect; luciferase read-out
2A StopGo – FMDV 2A StopGo reporter, luciferase signal | 410,000 tested, 1.2% active | human cells with a luciferase reporter of 2A StopGo recoding; control for the full effect not named in the record | Potency, µM (titrated, usually from 57.9 µM), inactives show top-dose signal change, negative = less light; active = well fitted falling curve with a large enough effect; inconclusive = small, poorly fitted or top-dose-only effect; inactive = no such curve, though single readings can be large or run the other way; tested in HEK293T cells; note: % is set by controls: 0 for no effect and ±100 for the full control effect; nearly all actives have a fitted effect of over 45% in size; luciferase light after 4 h
Cruzain inh Det – cruzain (T. cruzi) inhibition with detergent; AID 1478; P25779; Potency, µM, without a hit: max response, negative = inhibition, most hits filed as inhibitors; 200,000 tested, 0.43% active; purified cruzain, Z-FR-AMC fluorescence, 0.01% Triton; active = well fitted curve in the direction sought with a large enough effect; inconclusive = small, poorly fitted or top-dose-only effect, or another doubt; inactive = no such curve, though single readings can be large; an effect the other way counts as inactive or inconclusive;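 note: plate controls were neutral wells for no effect and buffer without enzyme for full effect; nearly all actives have a fitted effect of over 40% in size; top concentration of the series not given in the record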
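Detergent-containing run (0.01% Triton X-100) in acetate buffer pH 5.5 with 5 mM DTT: enzyme at 1.5 nM final, 15 min compound preincubation at room temperature, then 2 uM Z-FR-AMC substrate. Activity taken as 60 s fluorescence increase at 360/450 nm.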
* = called active by the depositor; ? = inconclusive; / = not tested or not shown; [ ] = remark or other dose. Unless noted, calls come from the whole dose curve; as a rule, active means well fitted rising curve with a large enough effect; inconclusive means small, poorly fitted or top-dose-only effect; inactive means no such curve, though single readings can be large or run the other way. Potency is the fitted concentration of half-maximal effect. Hits appear at their usual frequency. Share with any hit: about 4.7%.

SMILES	Lassa entry inh	SARS PLpro yeast	Cruzain noTriton	RE007 growth inh	NS1 inh	Marburg entry inh	2A StopGo	Cruzain inh Det
O=C(COC(=O)c1ccccc1[N+](=O)[O-])Nc1cc(S(=O)(=O)N2CCOCC2)ccc1N1CCCC1	/	4.3%	/	-6.9%	3.5%	/	-2.3%	/
COc1cccc(C(=O)NC2CC(=O)N(c3ccc4c(c3)OCCO4)C2)c1OC (centres undefined)	4.1%[46.1 µM]	/	2.3%	/	/	/	-9.0%	-1.4%
CC(=O)c1ccccc1NCC(=O)Nc1ccc(C)cc1	12.3%	-2.5%	/	13.3%	-40.9%	-0.5%	39.4%[activator]	/
CC(=O)N1CCCc2cc(S(=O)(=O)Nc3ccc(C)c(F)c3)ccc21	9.8%[46.1 µM]	/	0.6%	/	/	/	31.9%[activator]	-3.7%
Cc1cc(SCC(=O)NN=C2CCN(C(C)C)CC2)c(C)cc1Br	12.5%	-2.8%	0.1%	6.2%	20.7%	?	0.0%	-0.3%
COc1cc(C2CC(=O)NC3=C2C(=O)CC(C)(C)C3)cc(OC)c1O (centres undefined)	11.2%	3.2%	3.5%	10.6%	9.0%	?	0.0%	6.7%
Cc1cc(Cl)ccc1C(=O)C1CCCN(C(=O)c2nonc2C)C1 (centres undefined)	/	-11.4%	/	-8.4%	-68.2%	/	?	/
CC(=O)N1N=C(c2ccccc2)OC1c1ccc([N+](=O)[O-])s1 (centres undefined)	/	-31.8%	/	35.5µM*	/	-8.6%[46.1 µM]	-20.4%	/
COc1cc(SC)ccc1C(=O)Nc1ccccc1C#N	?	-2.1%	-1.2%	-5.6%	-7.3%	-12.2%	34.6%[activator]	-7.0%
COc1ccc(NC(=O)COc2ccc(S(=O)(=O)NC3CCCCC3)cc2)c(OC)c1	4.4%[46.1 µM]	/	0.7%	/	/	0.9%[46.1 µM]	36.0%[activator]	-5.3%
Cn1c(CCNS(=O)(=O)c2ccc(F)cc2)nnc1SCc1cccnc1	/	-7.4%	/	2.1%	-0.8%	-1.2%[46.1 µM]	9.2%	/
CC1=NN(c2ccccc2)C(=O)C1/C=C1\C(=O)NC(=O)N(c2ccc(C)c(C)c2)C1=O (centres undefined)	-0.2%	0.6%	3.6%	-21.6%	26.6%	?	?	-6.9%
COc1cccc(C2CC(=O)Nc3cc(OC)c(OC)c(OC)c32)c1OC(C)C (centres undefined)	-14.6%[46.1 µM]	/	1.8%	/	/	?	30.9%[activator]	-5.3%
CC1CCc2[nH]nc(C(=O)O)c2C1 (centres undefined)	-1.8%	1.6%	-6.5%	24.6%	-8.1%	0.3%	9.8%	3.0%
O=C(CS(=O)(=O)c1ccccc1)Nc1cccnc1	19.2%	-0.7%	/	4.7%	-1.4%	?	-9.5%	/
Cc1ccc(Nc2nc(N)c([N+](=O)[O-])c(N3CCOCC3)n2)cc1C	8.6%	-21.1%	?	-11.8%	-15.2%	?	-24.8%	-9.2%
COc1ccc(C(=O)COC(=O)c2nn(C)cc2Cl)cc1	?	-8.0%	/	-2.8%	-8.7%	?	46.9%[activator]	/
C/C(CC(=O)NC1CCCC1)=N\NC(=O)Cc1cccs1	15.6%	-6.8%	-4.9%	-16.8%	-1.0%	10.9%	-13.7%	4.2%
Cn1c(=O)n(Cc2ccc(F)cc2)c(=O)c2c1nc1n2CCN1Cc1ccco1	-16.3%	0.6%	/	-12.3%	/	-13.0%[46.1 µM]	?	/
COc1ccc(C)cc1NC(=O)Cc1c(C(=O)O)n(C)c2ccccc12	15.0%	1.8%	/	-5.4%	6.1%	8.7%	-7.4%	/
CN(C)CCNS(=O)(=O)c1ccc(Cl)cc1	2.8%	17.7%	4.2%	2.4%	2.4%	-0.5%	-24.7%	-0.1%
Oc1cccc(-c2nc3c4c(ncn3n2)-c2ccccc2CC42CCCC2)c1	-16.7%[14.3 µM]	-39.7%	4.3%	?	-20.6%	23.1µM*	?	9.6%
Cc1ccc(C(=O)C2CN3CCC2CC3)cc1 (centres undefined)	-2.4%	11.6%	5.8%	2.5%	6.1%	-0.9%	2.7%	4.9%
CC(C)NC(=NCc1ccc(Cl)cc1Cl)Nc1ccccc1	/	-1.4%	/	?	-1.4%	/	-29.9%	/
COc1ccc(Br)cc1C(=O)Nc1ccccc1N1CCN(C(=O)c2ccccc2)CC1	?	-0.7%	/	12.8%	14.9%	?	0.0%	/
Cc1ccccc1NC(=O)Cc1cccc(C(F)(F)F)c1	5.0%	-1.5%	/	129.5%	-0.4%	-11.7%[46.1 µM]	-6.8%	/
NS(=O)(=O)c1ccc(CCNC(=O)C2COc3ccccc3C2)cc1 (centres undefined)	-3.2%[46.1 µM]	/	4.8%	/	/	/	-2.6%	-0.2%
COC(=O)Cn1c(O)c(N=NC(=O)CNC(=O)c2ccncc2)c2ccccc21	0.4%[46.1 µM]	-0.7%	/	5.1%	-2.3%	2.8%[46.1 µM]	19.2%	/
COc1ccc(NC(=O)/C(Cl)=C(/Cl)S(=O)Cc2ccc(Cl)cc2)cn1 (centres undefined)	3.16µM*	-24.9%	/	4.47µM*	/	?	8.91µM*	/
CC(=O)Cn1c(CN2CCCC2)nc2ccccc2c1=O	-1.9%	-1.5%	/	-16.4%	/	20.2%[14.2 µM]	-3.5%	/
COc1ccccc1NC(=O)CN(c1cc(C)cc(C)c1)S(=O)(=O)c1c(C)[nH]c(=O)[nH]c1=O	-7.4%[46.1 µM]	/	?	/	/	-0.6%[46.1 µM]	-15.0%	0.2%
CCOc1ccccc1N1CC(C(=O)Nc2cc(Cl)ccc2C)CC1=O (centres undefined)	9.8%	5.3%	/	-18.2%	1.3%	-18.7%[46.1 µM]	-23.0%	/
N#CCCN(C(=O)COC(=O)CSc1ccc(Cl)cc1)c1ccccc1	8.3%	0.8%	/	-0.8%	/	-1.5%	-12.2%	/
COCCCNC(=S)N/N=C/c1ccc2c(c1)OCO2	/	-0.3%	/	-1.6%	3.7%	-0.1%	14.3%	/
CCCCCCOc1ccc(/C(C)=N/NC2=NCCN2)cc1[N+](=O)[O-]	/	-3.5%	/	-18.3%	9.6%	/	-10.7%	/
CCC(C)N(C(=O)CSc1nc2ccc(OC)cc2[nH]1)C1CCS(=O)(=O)C1 (centres undefined)	9.2%	6.9%	/	-7.4%	/	12.2%	-14.0%	/
NC(=O)CSc1nc(O)cc(=O)n1-c1ccccc1	9.8%	-1.8%	-21.0%	0.3%	-6.3%	?	-21.4%	4.7%
Cn1c(=O)c2c(nc(NCCCN3CCOCC3)n2Cc2ccc(Cl)cc2Cl)n(C)c1=O	/	8.2%	-4.2%	/	-3.0%	/	/	2.1%
Cc1cc(C)cc(OCC(=O)OCC(=O)Nc2cc(S(=O)(=O)N3CCOCC3)ccc2C)c1	?	-0.1%	/	1.9%	/	2.5%	-16.3%	/
N#Cc1c(NC(=O)c2cnn3cccnc23)sc2c1CCCC2	12.6%[46.1 µM]	0.7%	/	-11.2%	2.4%	?	19.0%	/
Cc1ccc2nc3ccc(N4CCCC4)nn3c(=O)c2c1	?	-7.9%	1.8%	1.0%	-2.7%	-13.1%	8.2%	-3.6%
O=C(Nc1nc(-c2ccccc2)ns1)c1ccncc1	/	2.2%	/	8.5%	-46.3%	/	15.5%	/
Cc1cccc(NC(=O)CSc2nccn2C)c1	?	/	/	1.7%	/	10.4%	43.3%[activator]	/
COc1ccc(C(=O)N/C(=C/c2cccnc2)C(=O)N2CCN(C)CC2)cc1OC	/	0.9%	/	-12.7%	28.3%	/	-0.2%	/
CCOc1ccc(NC(=O)/C(=C\c2ccc(OC(C)=O)c(OC)c2)NC(C)=O)cc1	?	5.9%	4.5%	-7.5%	12.8%	11.8%	11.2%	-4.2%
NS(=O)(=O)c1ccc(CCNS(=O)(=O)c2cccc3cccnc23)cc1	/	-0.7%	/	14.8%	3.4%	-7.7%	9.7%	/
Cc1cc(Br)ccc1NC(=O)C(Cc1ccccc1)NS(=O)(=O)c1ccc(Br)s1 (centres undefined)	-0.6%[46.1 µM]	/	28.4%	/	/	2.9%[46.1 µM]	-18.3%	0.9%
Nc1nc(NCC(=O)O)nc(NCc2ccccc2)c1[N+](=O)[O-]	-31.0%	0.9%	/	1.1%	4.4%	-20.4%[46.1 µM]	-11.5%	/
COCC1CCN(C(=O)c2cc(COc3cc(C)c(Cl)c(C)c3)on2)C1 (centres undefined)	/	-6.1%	/	-0.7%	-4.3%	/	-6.4%	/
O=S(=O)(Nc1ccc(-c2ccc3nncn3n2)cc1)c1cccs1	-4.3%	-1.5%	/	0.9%	/	15.2%[46.1 µM]	-7.9%	/
O=C(CCOc1ccccc1)Nc1ccc(S(=O)(=O)N2CCCC2)cc1	-6.8%	-1.8%	-0.6%	3.1%	-3.5%	2.0%	-26.8%	-2.7%
COc1cccc(CNC(=O)Cc2csc3nc(-c4ccccc4)cn23)c1	-7.8%[46.1 µM]	/	-7.0%	/	/	/	4.5%	-4.6%
COC(=O)Cn1c(=N)n(CCN2CCCCC2)c2ccccc21	-5.0%	-0.6%	-6.4%	-6.9%	-7.1%	-0.4%	-21.5%	2.4%
CC1CCC2(CC1)NC(=O)N(NC(=O)C1CCN(C(=O)c3ccc(Cl)cc3)CC1)C2=O (centres undefined)	8.3%	2.7%	/	13.4%	/	-24.5%[46.1 µM]	-24.9%	/
O=C(Nc1nc2n(n1)C(c1ccc(F)cc1)CC(c1ccccc1)N2)c1ccco1 (centres undefined)	/	-0.2%	/	11.8%	1.3%	/	0.0%	/

Two entries from above, as a markdown table.
| mol | Lassa entry inh | SARS PLpro yeast | Cruzain noTriton | RE007 growth inh | NS1 inh | Marburg entry inh | 2A StopGo | Cruzain inh Det |
| --- | --- | --- | --- | --- | --- | --- | --- | --- |
| Cc1cccc(NC(=O)CSc2nccn2C)c1 | ? | / | / | 1.7% | / | 10.4% | 43.3%[activator] | / |
| COc1ccc(C(=O)N/C(=C/c2cccnc2)C(=O)N2CCN(C)CC2)cc1OC | / | 0.9% | / | -12.7% | 28.3% | / | -0.2% | / |

High-throughput results deposited in PubChem BioAssay by National Center for Advancing Translational Sciences (NCATS).
